# Screening data as filed in PubChem BioAssay.
# CBX7 AlphaScr = blocks human CBX7 binding to H3K27me3 peptide; O95931; AlphaScreen His6-CBX7 / biotin-H3K27me3 peptide binding; hits give low values; normalised signal (fraction of DMSO) (concentration not given with the values); 66,000 compounds, 1.1% hits; AID 1224903; in the data active = normalised signal below about 0.5;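 also: 100 nL library stock added to about 20 µL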
# Target sequence (O95931 whole entry, looked up): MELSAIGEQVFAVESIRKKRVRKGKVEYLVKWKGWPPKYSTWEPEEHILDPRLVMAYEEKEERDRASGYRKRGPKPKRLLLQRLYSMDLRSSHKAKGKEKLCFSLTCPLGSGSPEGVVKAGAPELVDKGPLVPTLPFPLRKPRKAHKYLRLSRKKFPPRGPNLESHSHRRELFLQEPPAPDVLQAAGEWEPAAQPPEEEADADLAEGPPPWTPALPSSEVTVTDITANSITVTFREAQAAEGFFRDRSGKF
# CBX7 AlphaScr z-score = further read-out of CBX7 AlphaScr, marked with its call; z-score; measured here: z-score of CBX7 signal; some inactives read as strong as hits; reference of the scale not given here;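 same signal on another scale; lower means less binding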
# * hit, by the source's call.
cpd	molecule	CBX7 AlphaScr	CBX7 AlphaScr z-score
1	CCOc1cc(-c2nc(-c3ccncc3)no2)cc(OCC)c1OCC	1	0.51
2	Cc1cccc(NC(=O)CSc2nnc(CNC(=O)COc3ccc(Cl)cc3)o2)c1	1	0.66
3	CCCC(=O)Nc1cccc(-c2nc3ncccc3o2)c1	1	-0.12
4	COc1ccc(OC)c(-c2cc(C(=O)N3CCOCC3)no2)c1	0.95	-0.65
5	COc1cc2c(cc1OC)CN(C1CCN(Cc3ccccc3)CC1)CC2	1.4	3.2
6	CCOC(=O)C1CCN(C(=O)CCc2c(C)nc3c(-c4ccccc4)c(C)nn3c2C)CC1	1.2	2.6
7	CCCNC(=O)N1CCN(c2nc(C(C)C)c3c(c2C#N)CC(C)(C)OC3)CC1	1.2	1.1
8	O=C(Nc1nnc(C2CCCCC2)s1)c1cccc(F)c1	1.1	0.37
9	CCn1c(COc2cccc(C)c2)nc2ccccc21	1	0.58
10	Cc1cccc(N2C(=O)c3ccc(C(=O)Nc4cccc(C(=O)O)c4)cc3C2=O)c1	1	4e-05
11	Cc1[nH]nc2c1C(c1ccc(Cl)cc1)CC(=O)N2 (configuration not stated)	0.91	-0.098
12	COc1ccccc1NC(=O)CSc1nnc(Cc2cccn2C)n1-c1ccc(C)cc1	0.77	-5.4
13	COc1cccc(-n2c(C)nc3cc(C(=O)O)ccc32)c1	1	0.16
14	COC(=O)CSc1nnc(-c2ccc(Cl)cc2Cl)o1	1.2	3.7
15	Cc1c(C(=O)Nc2ccc(F)c(Cl)c2)sc2ncn(CC(=O)N3CC(C)CC(C)C3)c(=O)c12 (configuration not stated)	0.99	-0.31
16	CCc1ccccc1NC(=O)C1=CCN(S(=O)(=O)c2ccccc2)CC1	0.99	-0.22
17	Cc1cccc(-c2nc(CN3CCCC(C(=O)NCc4cccnc4)C3)c(C)o2)c1 (configuration not stated)	1	0.12
18	O=C(CCn1c(=O)[nH]c2ccccc2c1=O)N1CCc2ccccc2C1	1.2	0.62
19	COc1ccc(OC)c(CCNC(=O)CC2Oc3ccccc3NC2=O)c1 (configuration not stated)	1.1	0.55
20	Cc1ccn2cc(-c3cccc(NC(=O)c4sc(-c5ccccc5)nc4C)c3)nc2c1	0.99	-0.17
21	CC(C)(C)c1ccc2c(c1)N(CC(=O)NCCN1CCN(Cc3ccccc3)CC1)C(=O)CO2	0.98	-0.63
22	CCOC(=O)c1c(CN2CCOCC2)n(C)c2ccc(OS(=O)(=O)c3ccc(C)cc3)cc12	0.88	-1.9
23	Cc1ccn2c(NC(=O)CCc3ccccc3)c(-c3ccccc3)nc2c1	0.94	-0.1
24	O=C(c1cc2n(n1)C(C(F)(F)F)CC(c1ccc(F)cc1)N2)N1CCCCC1 (configuration not stated)	1.2	3.1

# 5 entries drawn at random from those above:
cpd	molecule	CBX7 AlphaScr	CBX7 AlphaScr z-score
6	CCOC(=O)C1CCN(C(=O)CCc2c(C)nc3c(-c4ccccc4)c(C)nn3c2C)CC1	1.2	2.6
3	CCCC(=O)Nc1cccc(-c2nc3ncccc3o2)c1	1	-0.12
11	Cc1[nH]nc2c1C(c1ccc(Cl)cc1)CC(=O)N2 (configuration not stated)	0.91	-0.098
8	O=C(Nc1nnc(C2CCCCC2)s1)c1cccc(F)c1	1.1	0.37
5	COc1cc2c(cc1OC)CN(C1CCN(Cc3ccccc3)CC1)CC2	1.4	3.2

# Continuation:
cpd	molecule	CBX7 AlphaScr	CBX7 AlphaScr z-score
25	O=C(CSc1nnc(Cc2cc(=O)[nH]c(=O)[nH]2)n1-c1ccccc1)Nc1cccc(Cl)c1	1	0.063
26	CCc1cccc(CC)c1NC(=O)CN(C)S(=O)(=O)c1ccc2c(c1)n(C)c(=O)c(=O)n2C	1.1	0.94
27	Cc1cc(C)cc(NC(=O)CCc2nc3ccccc3[nH]2)c1	1	0.091
28	COc1ccc(CNC(=O)C2CCCN(Cc3nc(-c4cccc(Cl)c4)oc3C)C2)cc1 (configuration not stated)	0.96	-0.43
29	COc1cccc(NC(=O)N(C2CCCCC2)C(C)c2ccncc2)c1 (configuration not stated)	1	1
30	COc1ccc(NC(=O)Cn2cc(S(=O)(=O)c3ccccc3)c(=O)c3cc(C)ccc32)c(OC)c1	0.88	-3.8
31	CCN(CC)S(=O)(=O)c1ccc2c(c1)N(CC(=O)Nc1cccc(Cl)c1)C(=O)CO2	0.98	-0.85
32	Cn1c(C(=O)NCc2ccc(F)cc2)cc2sc(Cl)cc21	1	0.43
33	Cc1nc2c(-c3ccccc3)c(C)nn2c(C)c1CCC(=O)NCc1cccc(Cl)c1	1.1	2.3
34	COc1ccccc1C(=O)N(Cc1ccc(C(C)C)cc1)C1CCS(=O)(=O)C1 (configuration not stated)	0.9	-0.097
35	C=CCNc1oc(COc2ccccc2F)nc1C#N	1	0.27
36	COc1cccc(NC(=O)c2sc3nc(C)nc(N4CCCCC4C)c3c2C)c1 (configuration not stated)	1	1.2
37	CC1(C(=O)NC2CCCCCC2)CCC(=O)N1Cc1cccs1 (configuration not stated)	1.2	2.7
38	CC(=O)N1CCc2cc(S(=O)(=O)Nc3ccc(C)c(Cl)c3)ccc21	0.84	-0.67
39	COc1ccc(CCNC(=O)C(C)n2ncc3ccccc32)c(OC)c1 (configuration not stated)	0.87	-2
40	Cc1c(C(=O)NCCc2ccc(Cl)cc2)oc2ccc(S(=O)(=O)N3CC(C)CC(C)C3)cc12 (configuration not stated)	1	0.12
41	Cc1ccccc1Cn1c(CCNC(=O)c2ccc(F)cc2)nc2ccccc21	1.1	1.2
42	O=C(NC1CCCCC1)C(c1ccccc1)N1CCOCC1 (configuration not stated)	1	1.7
43	Cc1ccc(Cn2ccc(NC(=O)c3cc(C(C)C)on3)n2)cc1	1	1.4
44	COc1ccc(NC(=O)c2cc(C(C)C)on2)c(OC)c1	0.93	-0.81
45	O=c1c2ccc(Cl)cc2nc(/C=C/c2ccc(OC(F)F)cc2)n1-c1ccc(F)cc1	1.1	6.2
46	O=C1N(c2ccccc2)C2CS(=O)(=O)CC2N1c1ccccc1 (configuration not stated)	0.99	-0.064
47	CC1(C)CC(=O)N(CC(=O)N2CCN(c3cccc(C(F)(F)F)c3)CC2)c2ccccc2S1	0.96	-1.1
48	CCC1Oc2ccc(C)cc2N(CC(=O)NCc2ccccc2OC)C1=O (configuration not stated)	1.1	1.3
49	O=C(CSc1nccn1-c1ccc(Cl)cc1)NC1CCCC1	1.2	1.7
50	CC(C)CC(=O)Nc1nnc(COc2ccccc2Cl)s1	1.2	0.79
51	COC(=O)C1=C(C)NC(=O)CC1c1cc(OC)ccc1OC (configuration not stated)	1.2	1.8
52	COc1ccc(Cl)cc1N1CC(c2nc3ccccc3n2Cc2ccc(F)cc2)CC1=O (configuration not stated)	0.96	-0.75
53	O=C(Nc1ccc(F)cc1Cl)c1cnc(N2CCN(c3ncccn3)CC2)c2ccccc12	1.1	0.91
54	Cc1cc(C)c(NS(=O)(=O)c2ccc3c(c2)CCN3C(=O)C2CCC2)c(C)c1	1.1	1.7
55	O=C(NCCN1CCOCC1)c1ccc2c(c1)N(Cc1ccccc1)C(=O)c1ccccc1S2	1.1	0.95
56	O=C(CN1C(=O)c2ccccc2S1(=O)=O)Nc1ccc2ccccc2c1	1	0.16
57	COc1ccccc1N1CCN(C(=O)C2c3ccccc3C(=O)N3CCc4ccccc4C23)CC1 (configuration not stated)	1	0.74
58	Cc1cc(N2CCC(C)CC2)nc2ccc(NC(=O)CC3CCCCC3)cc12	1.3	3.2
59	Cc1cccc(NC(=O)c2c(O)c3ccccc3[nH]c2=O)c1C	1	0.051
60	O=C(Cc1ccccc1)Nc1nc(-c2ccc(Oc3ccccc3)cc2)cs1	1	0.57

# Gathered by group, those above containing a COOH group.
cpd	molecule	CBX7 AlphaScr	CBX7 AlphaScr z-score
10	Cc1cccc(N2C(=O)c3ccc(C(=O)Nc4cccc(C(=O)O)c4)cc3C2=O)c1	1	4e-05
13	COc1cccc(-n2c(C)nc3cc(C(=O)O)ccc32)c1	1	0.16

# (cont.)
cpd	molecule	CBX7 AlphaScr	CBX7 AlphaScr z-score
61	COc1cc(NC(=O)c2cnc3ccccc3n2)cc(OC)c1	1.1	1.7
62	COc1cccc(NC(=O)c2cnn(-c3ccccc3)c2C2CCN(C(=O)OC(C)(C)C)CC2)c1	1	0.017
63	COc1ccc(OCCNC(=O)Nc2ccc3snnc3c2)cc1	1	0.69
64	O=C(CSc1nc(-c2ccccc2)[nH]c1-c1ccccc1)Nc1ccc2c(c1)OCCO2	0.82	-8.5
65	O=C(CN1C(=O)CSc2ccc(S(=O)(=O)N3CCOCC3)cc21)N1CCCCCC1	0.86	-1.7
66	O=C(Nc1cc(F)ccc1F)C12CC3CC(C1)CC(n1cncn1)(C3)C2	1.1	2.1
67	COc1cccc(NC(=O)Nc2nnc(-c3ccncc3)s2)c1	1	0.086
68	O=C(Nc1ccccc1Cl)C(Cc1ccccc1)N1C(=O)c2ccccc2C1=O (configuration not stated)	1.4	1.7
69	O=C(c1ccc2nc(N3CCOCC3)sc2c1)N1CCc2ccccc21	1.1	0.29
70	O=C(c1ccc2c(c1)N(Cc1ccc(F)cc1)C(=O)c1ccccc1S2(=O)=O)N1CCCCC1	1	0.0025
71	Cc1ccc(-c2nc(S(=O)(=O)c3ccc(C)cc3)c(SCC(=O)Nc3ccc(F)cc3)o2)cc1	0.95	-0.38
72	COc1cccc(-c2nnc(NC(=O)Nc3ccc(Cl)cc3)s2)c1	1.2	2.6

# A few values from above:
# CBX7 AlphaScr z-score result of no. 62 → 0.017
# CBX7 AlphaScr result of no. 61 → 1.1
# CBX7 AlphaScr result of no. 63 → 1
# CBX7 AlphaScr result of no. 69 → 1.1
# CBX7 AlphaScr z-score result of no. 72 → 2.6
# CBX7 AlphaScr result of no. 65 → 0.86

# Other compounds:
cpd	molecule	CBX7 AlphaScr	CBX7 AlphaScr z-score
73	COc1ccc(Nc2c3c(nc4ccc(Cl)cc24)CCC3)c(OC)c1	0.94	-0.077
74	O=C(Nc1ccc(-c2nc3ncccc3o2)cc1)c1ccccc1Br	1.1	0.75
75	CC(=O)N1CCc2cc(Br)cc(S(=O)(=O)NCCc3ccc(C)cc3)c21	0.94	-2.6
76	c1ccc(CNc2nnc(Cc3ccncc3)c3ccccc23)nc1	1	0.39
77	CC(C)CN(CCCNC(=O)CC1Oc2ccccc2NC1=O)CC(C)C (configuration not stated)	1.1	0.79
78	Cc1cc2nc(C)n(CCCNC(=O)NC34CC5CC(CC(C5)C3)C4)c2cc1C	1	1.7
79	CC1CCN(CCCNC(=O)C2CC(=O)N(c3ccc(F)c(Cl)c3)C2)CC1 (configuration not stated)	1	0.2
80	Cc1ccc(-c2nc3ccccc3c(=O)n2Cc2csc(-c3ccc(Cl)cc3)n2)cc1	1.1	2.6
81	CCOc1ccc(CNc2sc3c(c2C(=O)Nc2ccccc2OC)CCC3)cc1	0.95	-1
82	COc1ccc2nc(N3CCC(C(=O)NCCCN4CCCCC4)CC3)sc2c1	1	0.16
83	COc1ccc(C(=O)Nc2sc3c(c2C(N)=O)CCCC3)cc1OC	1.3	3.2
84	CN(CC(=O)NC1(Cc2ccc(O)cc2)CCCCC1)Cc1ccccc1	0.96	-2
85	Cc1ccc(NC(=O)Cn2ncc3c2-c2cc(C)ccc2OC3)c(Br)c1	1	1.1
86	CCOc1ccc(NC(=O)CCCNC(=O)Cn2cnc3sc(C)c(C)c3c2=O)cc1	0.98	-0.47
87	NC(=O)CN1C(=O)CC(c2ccccc2)Sc2ccccc21 (configuration not stated)	1.1	2.4
88	CCOC(=O)c1nc(Nc2ccccc2CC)c2ccccc2n1	1.1	0.095
89	CCOc1ccc(CC(=O)Nc2c(C(=O)OC)oc3ccccc23)cc1OCC	1.2	1.9
90	O=C(Cc1c(C(=O)O)[nH]c2ccccc12)NCCN1CCN(c2cccc(Cl)c2)CC1	1.1	0.83
91	O=C1c2cccnc2C(Nc2ccc(F)cc2)N1Cc1ccc(F)cc1 (configuration not stated)	0.84	-2.1
92	Cn1nc(-c2ccccc2F)c2cc(C(=O)N3CCN(c4ccccn4)CC3)sc21	0.8	-3.3
93	Cc1nn(-c2nc3ccccc3n2C)c2c1C(=O)CC(C)(C)C2	0.83	-0.34
94	CCn1c(C(=O)Nc2ccc(C)cc2C)cc2sc(Cl)cc21	1.1	2
95	Brc1ccc(-c2nc(-c3cccnc3)no2)cc1	1.1	0.22
96	Cc1cccc(C)c1Nc1c(-c2ccccc2)nc2ncccn12	0.98	-0.48
97	Cc1cccc(-c2noc(CN(C(=O)COc3ccc(C)cc3C)C(C)C)n2)c1	0.98	-0.36
98	Cc1cccc(NC(=O)CSc2nccn2-c2cccc(Cl)c2)c1C	0.47*	-1.9*
99	O=C1CN(C(=O)CCC2CCCC2)C(c2ccc(F)cc2)c2cc(Br)ccc2N1 (configuration not stated)	0.95	-0.64
100	CCc1ccc(CNC(=O)CCc2nc(-c3ccccc3F)no2)cc1	1.1	2.4
101	COc1ccc(Nc2nnc(-c3ccc(Cl)cc3)c3ccccc23)cc1C(N)=O	0.98	-0.018
102	C=CC1CCC(O)C(N(C)C(=O)Nc2cccc(Cl)c2)C1 (configuration not stated)	1.1	1.1
103	Nc1nonc1C(=O)NCc1ccc(Cl)cc1	1.1	1.5
104	Cc1nc2c(C)cccn2c1C(O)c1ccccc1 (configuration not stated)	1	1.3
105	Cc1nc2cc(-c3ccc(Cl)cc3)nn2c(C)c1CCC(=O)NCCN1CCOCC1	1.1	2
106	Cc1ccc(S(=O)(=O)c2cn(CC(=O)Nc3cccc(Cl)c3)c3ccc(C)cc3c2=O)cc1	1.1	2.1
107	Cc1ccc(N2CCN(S(=O)(=O)c3ccc4c(c3)CCN4C(=O)C3CCC3)CC2C)cc1 (configuration not stated)	0.98	-0.43
108	COc1ccc(-n2nc3c(c2NC(=O)Cc2cccs2)CSC3)cc1	0.96	-2.2
109	Cc1ccnc(N2C(=O)c3ccccc3C2Nc2ccc(C)c(C)c2)c1 (configuration not stated)	1	0.8
110	CCN(CCCNC(=O)c1cn(C2CCCC2)c(=O)c2c1c1ccccc1n2C)c1ccccc1	0.72	-7
111	OC(CNC1CCCCC1)Cn1c2ccccc2c2ccccc21 (configuration not stated)	1.1	1.1
112	Cc1ccc(-c2cc3nc4c(c(C(F)(F)F)n3n2)CCCC4)cc1	1.2	5.2

# Some of the compounds tested. The share of hits here may be higher or lower than overall.
